Source: PubChem BioAssay (National Center for Advancing Translational Sciences (NCATS))
HPGD inh: HPGD (human) dehydrogenase inhibition | P15428 | purified HPGD, NADH fluorescence kinetic, PGE2 substrate | Potency, µM, inactives show top-dose activity change, negative = inhibition, hits mostly inhibitors | actives 4.3% (n = 150,000); active = well fitted inhibition curve with a large enough effect (not every such curve was filed as active); inconclusive = small, poorly fitted or top-dose-only effect, or another doubt; inactive = no such curve, though single readings can be large or run the other way;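 note: top concentration of the series not given in the record; plate controls included wells without enzyme; inactives centre near -10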
Target sequence (P15428 whole entry, looked up): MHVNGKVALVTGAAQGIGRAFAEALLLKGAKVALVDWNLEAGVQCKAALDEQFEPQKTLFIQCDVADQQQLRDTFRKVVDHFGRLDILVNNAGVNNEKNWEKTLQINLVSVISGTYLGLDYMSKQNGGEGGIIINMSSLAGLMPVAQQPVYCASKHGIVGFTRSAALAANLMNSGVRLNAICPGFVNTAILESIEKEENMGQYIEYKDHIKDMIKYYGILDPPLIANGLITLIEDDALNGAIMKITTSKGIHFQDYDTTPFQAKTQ
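20 nM HPGD preincubated 15 min at room temperature with compound in 50 mM Tris-HCl pH 8, 0.01% Tween 20. Started with 1 mM NAD+ and 30 uM prostaglandin E2; NADH fluorescence (360/450 nm) read 5 times over 30-s intervals, last minus first.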
* = called active by the depositor; ? = inconclusive. % is set by controls: 0 for no effect and ±100 for the full control effect; potency is the fitted concentration of half-maximal effect. Not all compounds are listed, so the mix of outcomes need not match the whole.

SMILES | HPGD inh
CCC(=O)N1CCc2cc(Br)cc(S(=O)(=O)C3(C(=O)OC)CC3)c21 | -8%
COc1ccc(NC(=O)C(CCS(C)(=O)=O)N2C(=O)c3ccccc3C2=O)cc1 (stereo unspecified) | -12%
Cc1ccc(-n2cc3c(=O)n(C)c(=O)n(C)c3c2)cc1C | -19%
COC(=O)c1ccccc1NC(=O)CSc1nnc(Cc2ccc(Cl)cc2)o1 | 28µM*
COc1ccccc1/C=C(/C(=O)OCC(N)=O)c1ccccc1 | -7%
COc1ccc(/C=N/Nc2ccc(C(F)(F)F)cc2[N+](=O)[O-])cc1 | 2%
COC(=O)c1ccc(-n2nnnc2SCC(=O)N2CCCCC2)cc1 | -12%
CN1CCN(c2ccc(Cl)cc2NC(=O)c2ccc(S(=O)(=O)N(C)C)cc2)CC1 | -6%
CC(=O)C1=C(C)N(Cc2ccccc2)C(=O)N[C@@H]1c1cccc(C(F)(F)F)c1 | 1%
Cc1ccc(N(Cc2ccc(C(=O)NCCSc3ccccn3)cc2)S(C)(=O)=O)cc1C | -5%
CCCCC12CN3CCN(CC(C3)/C1=N\NC(=O)c1ccccc1N)C2 | ?
CCOc1ccc(-c2c[n+](=O)c3c(n2[O-])CCCC3)c(OCC)c1 | 2%
O=C(Nc1ccccc1)C1=C(O)CC(c2ccoc2)CC1=Nc1ccccc1 (stereo unspecified) | -13%
CC1CN(CC(O)COc2ccc(C(C)C)cc2)CC(C)O1 (stereo unspecified) | -8%
COC(=O)/C(=C/c1cccc([N+](=O)[O-])c1)NC(=O)c1ccc(OC)cc1 | -10%
Cc1nc(N2CCN(C(c3ccccc3)c3ccccc3)CC2)[nH]c(=O)c1C | -7%
CCc1ccc2nc3nc(C)cc(C)c3c(N)c2c1 | ?
CCOc1ccc2nc(NCCO)[nH]c2c1 | 3%
COCCn1c(=NC(=O)C(C)(C)C)sc2cc([N+](=O)[O-])ccc21 | -4%
CC(=O)N(CC1CCCO1)c1nnc(-c2ccccn2)s1 (stereo unspecified) | -11%
Nc1nc(SCc2ccc([N+](=O)[O-])cc2)c2ncn([C@@H]3O[C@H](CO)[C@H](O)[C@H]3O)c2n1 | 25µM*
CN1CCc2ccccc2[C@@H]1Cc1ccccc1NC(=O)c1sc2ccccc2c1Cl | -5%
CC(NC(=O)c1ccccc1)C(=O)NC1=NCCS1 (stereo unspecified) | -6%
O=C(OCCNC(=O)c1ccc2ccccc2n1)c1ccc(F)cc1 | -13%
O=C(CCCSc1nnnn1-c1cccc2ccccc12)c1ccc(F)cc1 | -22%
Cc1c(Cc2ccccc2)sc(/N=C/c2c(O)ccc3ccccc23)c1C(N)=O | ?
CCC(C)C(NC(=O)C1CCC(C)CC1)C(=O)NCc1ccccn1 (stereo unspecified) | -15%
Cc1cc(C)c2c(CC(=O)N(CCC#N)Cc3cccnc3)coc2c1 | -15%
O=C(CN1CCC(C(=O)c2ccc(F)cc2)CC1)Nc1ccc(F)cc1 | -4%
Nc1nc(CSc2ncn(-c3ccccc3)n2)cs1 | -14%
Cc1cc(-c2n[nH]c(=S)n2/N=C/c2ccc(C)s2)n[nH]1 | 25µM*
CCCCOC(=O)c1ccc(NC(=S)NC(=O)c2c(Cl)cnn2C)cc1 | -26%
CC(C)(C)n1cnc(C(N)=O)c1N | 1%
COc1cccc(N2CCN(C(=O)c3ccc(CSc4nc5ccncc5[nH]4)cc3)CC2)c1 | -6%
CN=C(C)c1c(O)c2ccccc2oc1=O | -27%
O=C(NCC1CCCO1)C1CCN(C(=O)c2ccc(Cl)cc2)CC1 (stereo unspecified) | 0%
CCOC(=O)c1[nH]c2ccccc2c1NC(=O)C1CCCCC1 | -24%
CCCN(c1ccc(OCC)cc1)S(=O)(=O)c1ccc2c(c1)CCN2C(=O)CCC(=O)O | -1%
CNC(=O)C1C2C=CC3(O2)C1C(=O)N(CCOC)C3C(=O)NCc1ccc(OC)cc1 (stereo unspecified) | -5%
Cc1ccc2nc(Cl)c(C3CC(c4cccs4)=NN3C(=O)CCC(=O)O)cc2c1 (stereo unspecified) | -19%

Quoted at random: three compounds from above.
SMILES | HPGD inh
COc1cccc(N2CCN(C(=O)c3ccc(CSc4nc5ccncc5[nH]4)cc3)CC2)c1 | -6%
CN1CCc2ccccc2[C@@H]1Cc1ccccc1NC(=O)c1sc2ccccc2c1Cl | -5%
O=C(OCCNC(=O)c1ccc2ccccc2n1)c1ccc(F)cc1 | -13%

Additional compounds
SMILES | HPGD inh
CCCCSc1nnc(-c2cc3c(C(F)(F)F)nn(C)c3s2)n1C | -7%
CC(/C=N\NC(=O)c1ccc(C)nc1)=C\c1ccccc1 | -15%
O=C(NN=C1c2ccccc2-c2ccccc21)c1ccccc1 | -7%
c1csc(C2=Nn3c(nnc3-c3ccncc3)SC2)c1 | 28µM*
O=C(CNC(=S)NC(=O)c1ccc(Cl)cc1)c1ccccc1 | -5%
COc1cc(CC(CC(=O)O)CC(C)OCc2ccccc2)cc(OC)c1 (stereo unspecified) | -3%
COCCCNCCCCOc1ccc(Br)cc1Cl | -4%
C=C(C)CSC1=C(C#N)C(c2ccccc2Cl)CC(=O)N1 (stereo unspecified) | ?
Cc1cc(C)n(-c2ccc(C(=O)OCc3nnc(-c4ccccc4)o3)cc2)n1 | -15%
COc1ccc(Nc2cc(C)nc(-n3nc(C)cc3C)n2)cc1 | -1%
O=C(OCc1csc(-c2ccccc2)n1)c1cccs1 | -15%
CCOC(=O)CC(=O)CSc1nc2c(cc1C#N)CCC2 | -21%
Cc1nnc(-n2cnc3ccccc32)c2ccccc12 | -17%
COc1cccc(N(C(C)=O)c2nc(C)cc(C)c2C#N)c1 | -11%
COC(=O)c1cc2ccc(OC)c(OC)c2c(=O)s1 | -15%
O=C(C/C=N/OCc1c(Cl)cccc1Cl)c1ccccc1 | ?
c1ccc(C2CC(c3ccccc3)n3c(nc4ccccc43)N2)cc1 (stereo unspecified) | -10%
CCOC(=O)c1c(C)c(C)n2c1NC(=O)C2 | -14%
Cc1ccc(NC(=O)C(Nc2cccc(C)c2)c2ccccc2)cc1 (stereo unspecified) | -13%
CCOc1ccc(Cn2nnc(C(=O)NCc3ccccc3)c2N)cc1 | -8%
NC(=O)NC(=O)CSc1cccc(C(F)(F)F)c1 | -3%
CCOC(=O)c1csc(NC(=O)CSc2nnnn2-c2ccc(OC)c(OC)c2)n1 | -20%
CCCCC(=O)Nc1ccc(NC(=O)c2ccc3c(c2)OCO3)cc1OC | -7%
CC(=O)N=c1c(C#N)cc2c(=O)n3cccc(C)c3nc2n1CC(C)C | ?
CN(CC(=O)NCc1ccccc1)S(=O)(=O)c1cnc[nH]1 | -12%
CCc1ccc(OCC(O)CN2CCN(c3ccccc3)CC2)cc1 (stereo unspecified) | -7%
COc1ccc(N2CCN(C(=O)c3c(-c4ccccc4)noc3C)CC2)cc1 | -5%
N#CNC(=Nc1ccc(F)cc1)SCc1ccccc1 | -9%
O=C(CSc1nnc(C2CCCCC2)n1Cc1ccccc1)NCc1ccco1 | -11%
c1ccc2sc(C3CCN(Cc4nnnn4Cc4ccc5c(c4)OCO5)CC3)nc2c1 | -6%
Cc1nn(C(C)C(=O)NCC2CCCO2)c(=O)c2cc3occc3n12 (stereo unspecified) | -15%
COc1cccc(OC)c1-c1nn2c(-c3ccco3)nnc2s1 | 16µM*
COC(=O)CN1C(=O)C(C)(C)Oc2ccc(C(=O)NC3CC3)cc21 | -4%
COc1ccc(C(=O)OCC(=O)NC2CC2)cc1[N+](=O)[O-] | -6%
CC(C)(C)C(=O)Nc1ncc(C(F)(F)F)cc1Cl | -3%
C/C=C(\C)c1nnc(NC(=O)OCC)s1 | -12%
CCOC(=O)C1CCCN(S(=O)(=O)c2ccc(OC)cc2)C1 (stereo unspecified) | -5%
CCc1ccc(CCC(=O)Nc2ccc(C)c(C)c2)o1 | -25%
CCOC(=O)CN(C(=O)CSc1nnc(-c2ccncc2)n1CCCOC)c1ccccc1 | -8%
COc1cc(C(=O)Nc2nncs2)cc(OC)c1OC | -1%
O=c1[nH]cnc2c([N+](=O)[O-])cccc12 | -9%
CSc1nc(SCC(=O)NCc2ccco2)c2c3c(sc2n1)COC(C)(C)C3 | ?
CCn1cc(/C=N\NC(=O)c2csc3ccccc23)c(C)n1 | -20%
c1csc(-n2nc3ccccc3n2)c1 | -17%
Cc1cc(N=Cc2c(O)n(-c3cccc(C(F)(F)F)c3)c(=O)c3ccccc23)no1 | -21%
O=C1CC(c2ccc(S(=O)(=O)Nc3cc(C(F)(F)F)cc(C(F)(F)F)c3)cc2)CN1 (stereo unspecified) | -4%
Cn1c(=O)oc2cc(S(=O)(=O)NCCC(=O)NCCc3ccccc3)ccc21 | -13%
COc1cc(OC)c(OC)cc1NC(=O)CC1COc2ccccc2O1 (stereo unspecified) | -9%
CC(=O)c1cc(-c2ccccc2)n(CCC(=O)NC2CCCCCCC2)c1C | -9%
O=C(Nc1cccc(Cl)c1)N1CCCC1 | -5%
CCCOc1ccc(C2=NNC(=O)CC2)cc1 | -15%
CCn1c(SCC(N)=O)nc2ccccc2c1=O | -9%
O=C(NNC(=S)Nc1cccc(C(F)(F)F)c1)c1ccc(Cl)cc1Cl | -15%
CCOCCCNC(=O)Cn1cc2c(n1)CCCCC2 | 1%
CCOc1cc(C(=O)NC(C)c2ccncc2)cc(OCC)c1OCC (stereo unspecified) | -14%
CCOc1c2ccc(C(=O)NC3CCCc4ccccc43)cc2nn1CC (stereo unspecified) | ?
COC(=O)c1sccc1NC(=O)c1ccc(OC)cc1 | ?
Cc1n[nH]c(=S)c2nn(-c3ccccc3F)c(C)c12 | -15%
C(=N\c1ncnc2sccc12)/NOCc1ccccc1 | -6%
COc1ccc(S(=O)(=O)NCCSCc2ccco2)cc1Cl | 0%

Some of the entries above in another layout:
Cc1cc(N=Cc2c(O)n(-c3cccc(C(F)(F)F)c3)c(=O)c3ccccc23)no1
- HPGD inh = -21%
O=C1CC(c2ccc(S(=O)(=O)Nc3cc(C(F)(F)F)cc(C(F)(F)F)c3)cc2)CN1 (stereo unspecified)
- HPGD inh = -4%
Cn1c(=O)oc2cc(S(=O)(=O)NCCC(=O)NCCc3ccccc3)ccc21
- HPGD inh = -13%

Of the compounds above, 3 have a tert-butyl group:
SMILES | HPGD inh
COCCn1c(=NC(=O)C(C)(C)C)sc2cc([N+](=O)[O-])ccc21 | -4%
CC(C)(C)n1cnc(C(N)=O)c1N | 1%
CC(C)(C)C(=O)Nc1ncc(C(F)(F)F)cc1Cl | -3%

Additional entries.
SMILES | HPGD inh
C=CC1=C2C=C(C3CC3)N(Cc3ccc4c(c3)OCO4)C=C2C(=O)C(C)(OC(=O)c2ccco2)C1=O (stereo unspecified) | -8%
O=C(COc1ccccc1)N1CCN(C(=O)c2cccs2)CC1 | -9%
CC1CCN(c2ccccc2NC(=O)c2ccc(N3CCOCC3)c([N+](=O)[O-])c2)CC1 | 2%
CC1=NOC(=O)/C1=C\c1ccc(-c2cccc(Cl)c2)o1 | 3.2µM*
Nn1c(=O)c2ccccc2n2c(SCc3ccc(C(F)(F)F)cc3)nnc12 | 11µM*
COc1ccc(OC)c(S(=O)(=O)Nc2ccc(C)c(C)c2)c1 | -5%
O=C1CCCC2=C1C(c1ccc(Cl)cc1)N1C(=O)CCSC1=N2 (stereo unspecified) | ?
COc1cc(NC(=O)CCNC(=O)Cn2cnc3ccccc3c2=O)cc(OC)c1OC | -2%
CCOc1ccc(N2CC(=O)N/C2=N\c2nc(C)cc(C)n2)cc1 | -4%
O=c1[nH]c(Nc2ccc(F)cc2)cc2ccccc12 | ?
O=C(Nc1ccc2c(c1)OCO2)c1ccc(COc2ccc3c(c2)CCC3)o1 | -12%
COC(=O)c1cn(CC(=O)N2C(C)CCCC2C)c2ccccc12 (stereo unspecified) | -8%
CC(C)Cn1c2c(c(O)c(C(=O)Nc3ncccc3O)c1=O)CCCC2 | -8%
COc1ccc(-c2csc(NC(=O)c3cccc(S(=O)(=O)N4CCN(C)CC4)c3)n2)cc1 | ?
C=CCNc1nc(-c2ccc([N+](=O)[O-])cc2)cs1 | -10%
O=C(c1cc(-c2ccco2)on1)N1CCOCC1 | -27%
COc1ccc(-c2cn[nH]c2N)cc1 | -2%
Cc1ccc(NC(=O)Nc2ccccc2C#N)c(Cl)c1 | ?
N#Cc1ccc(OCc2nnc(SCC(=O)c3ccccc3)n2-c2ccccc2)cc1 | -22%
COc1ccc2nc(N3CCC(C)CC3)c(C#N)cc2c1 | -20%
CCCCCCCC(=O)NNC(=O)CC(=O)Nc1ccccc1C(=O)O | -10%
Oc1ccc(-c2[nH]ncc2-c2cccc3cccnc23)c(O)c1 | -2%
CCOCCCNC(=O)CNC(=S)N(Cc1ccccc1F)C1CCCCC1 | -12%
COc1cc2oc(=O)cc(-c3ccc(-c4ccc(N(C)C)cc4)cc3)c2c(OC)c1OC | -16%
CC(=O)Nc1ccc(C(=O)Nc2ccc3c(c2)OCO3)cc1 | -10%
COc1ccc(-n2c(=O)c(-c3ccc(Cl)cc3)nc3cnc(N4CCOCC4)nc32)cc1 | -13%
N/C(Cc1cccs1)=N\OC(=O)COc1ccc(Cl)cc1Cl | -17%
CC(=O)/C=N/Nc1ccccc1 | -31%
O=C(CN1CCN(c2ncc(C(F)(F)F)cc2Cl)CC1)N1CCN(c2ncc(C(F)(F)F)cc2Cl)CC1 | -26%
O=C(CNC(=O)c1ccco1)N/N=C/c1ccc(O)c([N+](=O)[O-])c1 | -21%
NC(N)=NC(N)=Nc1ccc(S(N)(=O)=O)cc1 | -1%
O=C(Nc1ccc(Cl)cc1F)C1CC1 | -3%
c1ccc(COc2ccccc2CNCc2cccnc2)cc1 | -7%
N#Cc1cc2c(nc1SCC(O)CS(=O)(=O)Cc1ccc(Cl)cc1)CCCC2 (stereo unspecified) | -25%
